Screening results: PubChem BioAssay, National Center for Advancing Translational Sciences (NCATS)
AmpC nodet inh: blocks E. coli AmpC beta-lactamase in absence of detergent; AmpC nitrocefin hydrolysis, absorbance 480 nm, no detergent; potencies from a single point are estimates; hit rate 1.8% among 71,000; Potency, µM (series often up to 28.7 µM), without a hit: top-dose activity change, negative = inhibition; active = falling curve, for most hits resting on a single point; inconclusive = weak or doubtful change; inactive = flat or rising curve; note: % of control where 0% means no effect; about half of the hits show no inhibition at the top dose; a quarter of the inactives give rising signals
Target sequence (P00811 whole entry, looked up): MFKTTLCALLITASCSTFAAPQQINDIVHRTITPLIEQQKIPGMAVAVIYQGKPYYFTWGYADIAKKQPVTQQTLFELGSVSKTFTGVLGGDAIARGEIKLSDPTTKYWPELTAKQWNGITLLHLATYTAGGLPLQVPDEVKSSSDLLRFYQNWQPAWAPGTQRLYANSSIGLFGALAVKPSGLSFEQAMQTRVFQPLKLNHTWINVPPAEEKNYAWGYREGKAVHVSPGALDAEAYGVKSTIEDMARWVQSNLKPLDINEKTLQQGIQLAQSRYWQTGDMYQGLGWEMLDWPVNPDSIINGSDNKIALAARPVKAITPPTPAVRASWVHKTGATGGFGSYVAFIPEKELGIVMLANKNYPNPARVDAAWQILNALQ
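AmpC in 20 mM phosphate buffer pH 7.0 was preincubated 15 min at room temperature with compounds. Nitrocefin (800 uM stock) was then added and hydrolysis followed at 480 nm every 20 s for 4 min.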
* marks the source's active call; other numbers are inactive results; ? = inconclusive; [ ] = remark or other dose. Potency is the fitted concentration of half-maximal effect.

SMILES	AmpC nodet inh
Cc1cccc(NC(=O)C2CCN(S(=O)(=O)c3c(C)nn(C)c3C)CC2)n1	16%
O=C(CSc1nccc(=O)[nH]1)Nc1ccc(F)c(Cl)c1	-11%
C[C@H](O)[C@@H]1C(=O)N2C(C(=O)O)=C(SCCN=CN)C[C@@H]12	-4%[12.8 µM]
CC(C)NC[C@@H](O)COc1cccc2[nH]ccc12	9%
CCc1cccc(C)c1NC(=O)CSc1nnc(-c2ccco2)n1N	-8%
CCN1CCN(S(=O)(=O)c2cc(OCC(=O)NC3CCCCC3)c(C)cc2Cl)CC1	125%
CCC1CCCCN1C(=O)Cn1c(=O)n(CCC(=O)NCc2ccco2)c(=O)c2sccc21 (centres undefined)	14%
CC(C)(C)n1ncc2c(=O)n(CC(=O)NCCc3ccccc3)cnc21	10%
CCN(CC)CCCNC(=O)c1nn(-c2ccc(OC)cc2OC)c(=O)c2ccccc12	-17%
Cc1cnc(C(=O)OCC(=O)Nc2cc(Cl)cc(Cl)c2)cn1	1%
Cc1ccc2cc(C#N)c(SCC(=O)NCC3CCCO3)nc2c1 (centres undefined)	9%
COCCNc1ncnc2ccc(-c3cccnc3)cc12	-8%
CN=CC1=C(O)CC(C)(C)CC1=O	1%
CCc1cc2cc(C)ccc2nc1SCC(=O)N1CCN(C(=O)c2ccco2)CC1	126%
O=C1CC(c2ccsc2)c2cc3c(cc2N1)OCCO3 (centres undefined)	3%
COc1ccccc1C1C2=C(N=C3SCC(=O)N31)c1ccccc1CC2 (centres undefined)	52%
CCCCCn1c(=O)[nH]c2c(c1=O)CCC2	6%
O=C(CSc1cccc2cccnc12)NCc1ccco1	-12%
CCOCCn1c(-c2ccc(OC)cc2)nc2ccccc21	22%
C=CC(=O)OCCCCCCOC(=O)C=C	11%
CC(C)(C)C(=O)NC1CCN(C(=O)N2CCCC2)CC1	4%
COCCSc1ccccc1C(=O)N1CCN(Cc2ccc3c(c2)OCO3)CC1	40%
COC(=O)c1ccccc1-n1c(C)nc2ccccc2c1=O	13%
CCN1c2ccccc2-c2nc3ccccc3n2C1c1ccccn1 (centres undefined)	30%
O=C(c1cc2c(ccc3ccccc32)oc1=O)N1CCN(CCO)CC1	15%
SMILES	AmpC nodet inh
CCCCOC(=O)CNc1nnc(SCC(=O)OCC)[nH]c1=O	9%
CCn1c(CN2CCCCCC2=O)nnc1SCc1cnc(-c2ccccc2)s1	95%
COc1ccccc1OCC(=O)OCC(=O)Nc1ncc(Cl)cc1Cl	-3%
Cc1[nH]nc2c1C1(CCC3(CC1)OCCO3)C(C#N)=C(N)O2	-2%
COc1cc(C2C(C(=O)c3ccco3)=C(O)C(=O)N2CCc2ccccc2)ccc1O (centres undefined)	-17%
O=C(NCC1CCCO1)c1cc(-c2ccco2)nc2ccccc12 (centres undefined)	-8%
CN1CCN(C(=O)c2ccc3c(c2)N(Cc2cccc(Cl)c2)C(=O)c2ccccc2S3=O)CC1 (centres undefined)	57%
COc1cccc2c(=O)n(CC(=O)NC3CCCC3)ccc12	8%
O=C1c2ccccc2C(=O)N1CCCSc1nc2ccccc2o1	27%
Cc1ccc2nc(-c3cccc(NC(=O)c4ccco4)c3)[nH]c2c1	-16%
CCOC(=O)C1C2C=CC3(CN(CCc4ccccc4)C(=O)C13)O2 (centres undefined)	8%
COCCCNC(=O)CN(c1cc(OC)ccc1OC)S(=O)(=O)c1ccccc1	51%
Cc1cccc(OCCCN2CCCCCC2)c1	5%
Cc1cc(N2C3CCC2CC(O)(c2ccc(F)cc2)C3)nc(-c2ccccc2)n1 (centres undefined)	44%
O=C(CN1C(=O)NC2(CCCCC2)C1=O)Nc1ccccc1Cl	6%
CC(=O)c1cc2c(cc1N)OCO2	-2%
N=c1n(CCN2CCOCC2)c2ccccc2n1Cc1ccccc1Br	13%
COc1ccccc1-n1c(CNc2c(C)cccc2C)nnc1SCC(=O)N1CCOCC1	99%
OC(CN1CCN(c2cccc(C(F)(F)F)c2)CC1)c1c[nH]c2ccccc12 (centres undefined)	62%
CCN1C(=O)CC(N2CCC(Nc3ccc(F)cc3)CC2)C1=O (centres undefined)	26%
Cc1nc(N2CCOCC2)c2nc(-c3ccccc3)n(C(C)CN(C)C)c2n1 (centres undefined)	49%
Cc1ccc2cc(CN(Cc3ccco3)C(=O)C3CCCCC3)c(=O)[nH]c2c1C	40%
CN1CCN(c2ncc3nc(-c4cc(F)cc(F)c4)c(=O)n(CCC#N)c3n2)CC1	60%
COc1ccc(N2C(=O)CC(=O)NC2=O)cc1	2%
CCOC(=O)c1sc(NC(=O)CSc2nnc(Cc3ccccc3)o2)c(C#N)c1C	?
SMILES	AmpC nodet inh
O=C(O)c1cc(-c2ccco2)[nH]n1	-18%
COc1ccc(NC(=O)C2CCCN(S(=O)(=O)c3cccnc3)C2)c(OC)c1 (centres undefined)	4µM*[single pt active]
COc1ccc2[nH]cc(CCNc3cc(-c4ccccc4CN(C)C)ncn3)c2c1	34%
CCNc1nc(C)cc(COC)c1C#N	9%
CCOC(=O)C(Cc1cc(C(C)=O)ccc1OCC)C(=O)OCC	51%
CCCC[N+]1(C)[C@@H]2CC(OC(=O)[C@@H](CO)c3ccccc3)C[C@H]1[C@H]1O[C@H]12 (some centres undefined)	-1%
CCOC(=O)CSc1nc(N)c(C#N)c(-c2cccs2)c1C#N	-8%
O=c1c2ccccc2nc(-c2cccc(Cl)c2)n1O	-7%
CC(C)c1cccc2nc3c(c([Si](C)(C)C)c12)Cn1c-3cccc1=O	150%
N#Cc1cccc(-c2nc(NCCN3CCOCC3)c3ccccc3n2)c1	116%
Cc1occc1C(=O)NCc1cccc(CNC(=O)c2ccoc2C)c1	-24%
COc1ccc(OC)c(CCNC(=O)C2CCN(c3nnc(-n4cccc4)s3)CC2)c1	103%
COc1ccc(C(=O)N(CCCO)Cc2cc3c(C)ccc(C)c3[nH]c2=O)cc1OC	67%
Nc1ncnc2nc(Sc3ccc(Cl)cc3)[nH]c12	-6%
Cn1c(C(=O)OCC(=O)NCCc2ccccc2)cc2sccc21	19%
COC(=O)c1c(NC(=O)CN2CCC(C)CC2)c2c(C)cccc2n1C	58%
N#C[C@H]1CN[C@H](N)N[C@@H]1N	-1%[5.75 µM]
Cc1ccc(C(=O)CSc2nc(C)cc(SCc3nnc(-c4ccccc4)o3)n2)cc1	16%
CC(C)(C#N)N([O-])C=C[N+](=O)C(C)(C)C#N	-3%
Cc1sc2nc3ccc(N4CCCC4)nn3c(=O)c2c1C	4µM*[single pt active]
CCc1ccc(NC(=O)CNS(=O)(=O)c2c(C)noc2C)cc1	4%
CN1/C(=C\C(=O)COC(=O)CN2C(=O)C3CC=CCC3C2=O)C(C)(C)c2ccccc21 (centres undefined)	74%
Cc1ccc(-n2c(SCC(=O)N3CCCC3)nc3c(c2=O)SCC3)cc1	28%
O=C(Cn1nc(-c2ccc(Cl)cc2)ccc1=O)NCC1CCCO1 (centres undefined)	62%
CCN(Cc1ccccc1)S(=O)(=O)c1ccc(C(=O)Nc2nnc(C3CC3)o2)cc1	-12%

The list goes on; it opens with the 3 that closed the last part.
SMILES	AmpC nodet inh
Cc1ccc(-n2c(SCC(=O)N3CCCC3)nc3c(c2=O)SCC3)cc1	28%
O=C(Cn1nc(-c2ccc(Cl)cc2)ccc1=O)NCC1CCCO1 (centres undefined)	62%
CCN(Cc1ccccc1)S(=O)(=O)c1ccc(C(=O)Nc2nnc(C3CC3)o2)cc1	-12%
O=C(Nc1ccc2c(c1)OCO2)C1CCN(Cc2cnn(-c3ccccc3)c2-n2cccc2)CC1	46%
Cc1cc(C(=O)NCCCN2CCCC2=O)cs1	1%
O=S(=O)(c1cccc(-c2cn3cccnc3n2)c1)N1CCOCC1	-7%
CCSc1cnc(-c2ccccc2)n1CC	12%
CN(C)c1ccnc(-c2cccc(NS(C)(=O)=O)c2)n1	10%
CCN1CCc2nc(N)oc2CC1	12%
O=S(=O)(c1ccccc1)N1CCC2(CCN(c3ccc(-c4ccccc4)cc3)CC2)CC1	6%
CCC(=O)c1ccc(N2CCN(C(=O)Cc3ccccc3)CC2)c(F)c1	37%
CCNc1ncc2nc(C)c(=O)n(Cc3cccc(OC)c3)c2n1	22%
COc1ccccc1CNC(=O)c1ccc(NS(=O)(=O)c2c(C)noc2C)cc1	-21%
CCn1c(CCCc2nc3c([nH]2)c(=O)n(C)c(=O)n3C)nc2c1c(=O)n(C)c(=O)n2C	-2%[5.75 µM]
O=C(C1CC1c1ccccc1)N1CCOCC1 (centres undefined)	4%
CCOC(=O)CSc1nc2ccccc2n2cnnc12	-4%
O=C(O)CCCN1CCCCC1	10%[5.75 µM]
COc1cc2[nH]c(=O)n(CCCCCC(=O)NCCCN3CCCC3=O)c(=O)c2cc1OC	22%

Grouped by structure, the compounds so far with an NH in an aromatic ring
SMILES	AmpC nodet inh
O=C(CSc1nccc(=O)[nH]1)Nc1ccc(F)c(Cl)c1	-11%
CC(C)NC[C@@H](O)COc1cccc2[nH]ccc12	9%
CCCCCn1c(=O)[nH]c2c(c1=O)CCC2	6%
CCCCOC(=O)CNc1nnc(SCC(=O)OCC)[nH]c1=O	9%
Cc1[nH]nc2c1C1(CCC3(CC1)OCCO3)C(C#N)=C(N)O2	-2%
Cc1ccc2nc(-c3cccc(NC(=O)c4ccco4)c3)[nH]c2c1	-16%
OC(CN1CCN(c2cccc(C(F)(F)F)c2)CC1)c1c[nH]c2ccccc12 (centres undefined)	62%
Cc1ccc2cc(CN(Cc3ccco3)C(=O)C3CCCCC3)c(=O)[nH]c2c1C	40%
O=C(O)c1cc(-c2ccco2)[nH]n1	-18%
COc1ccc2[nH]cc(CCNc3cc(-c4ccccc4CN(C)C)ncn3)c2c1	34%
COc1ccc(C(=O)N(CCCO)Cc2cc3c(C)ccc(C)c3[nH]c2=O)cc1OC	67%
Nc1ncnc2nc(Sc3ccc(Cl)cc3)[nH]c12	-6%
CCn1c(CCCc2nc3c([nH]2)c(=O)n(C)c(=O)n3C)nc2c1c(=O)n(C)c(=O)n2C	-2%[5.75 µM]
COc1cc2[nH]c(=O)n(CCCCCC(=O)NCCCN3CCCC3=O)c(=O)c2cc1OC	22%

This is a subset; rates above refer to the full screens.
